# T cruzi inh – T. cruzi replication inhibition; inhibition, % (concentration not given with the values); hit rate 1.4% among 300,000; T. cruzi beta-gal in NIH3T3, luminescence, 90 h; AID 1885;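 active = mean inhibition across valid replicates above about 55%, limit read from the data; inconclusive = mean below that limit but half or more replicates reach it; inactive = mean below it, under half of replicates reach it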;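 also: signal also drops with host cell toxicity which is not excluded here; 0% = plate median of DMSO wells and 100% = zero luminescence signal; higher percent means less beta-gal luminescence so fewer parasites; stock transfer was 50 nL into about 50 µL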
# B2AR ag – human beta-2 adrenergic receptor agonism by FAP | hit rate 0.43% among 340,000 | AID 504454 | response, % (test concentration not listed) | P07550 | Am2.2-beta2AR cells, FAP receptor internalization, flow cytometry; reference of the scale not given here;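 active = response above a set limit, near 3 SD of response in nonfluorescent compounds, cut at about 42% in these data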;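 also: stock transfer was 100 nL into about 11 µL; a reference agonist was the positive control; negative values mostly stem from fluorescent compounds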
# Target sequence (P07550 whole entry, looked up): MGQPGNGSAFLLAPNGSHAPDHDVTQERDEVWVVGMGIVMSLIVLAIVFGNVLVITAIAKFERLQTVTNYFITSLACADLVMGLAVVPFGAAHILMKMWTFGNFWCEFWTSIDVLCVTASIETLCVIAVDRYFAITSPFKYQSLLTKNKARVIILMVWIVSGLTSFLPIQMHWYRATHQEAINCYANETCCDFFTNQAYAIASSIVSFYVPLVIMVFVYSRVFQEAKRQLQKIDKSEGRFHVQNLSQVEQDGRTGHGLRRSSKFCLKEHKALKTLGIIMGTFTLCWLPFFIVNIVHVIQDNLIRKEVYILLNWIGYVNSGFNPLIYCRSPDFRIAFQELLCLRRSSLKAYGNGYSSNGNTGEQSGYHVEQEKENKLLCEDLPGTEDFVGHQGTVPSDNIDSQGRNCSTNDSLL
# LANA-H2B inh – blocks KSHV LANA binding to histone H2A/H2B | Q9QR71 | cell-free LANA-H2A/H2B peptide, fluorescence polarization | inhibition, % (no concentration beside the values) | hit rate 0.6% among 320,000 | AID 2629; in the data active = inhibition mostly above about 10%, no sharp cut-off; inactive = mostly below about 6.7%;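 also: stock transfer was 7.5 nL into about 10 µL; 0% = median of vehicle wells and 100% = median of positive control wells; one replicate is shown; the record names a cut of 25% in any replicate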
# Beta apoptosis – blocks beta cell apoptosis | INS-1E cytokine-induced death, ATP luminescence, 48 h; percent of positive-control rescue, neutral wells zero | protection from apoptosis, % (test concentration not listed) | hit rate 0.8% among 300,000;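 active = all replicates at 75% or more, or half of them and the mean; inconclusive = half reach 75% but not the mean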;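 also: 0% = cytokine-treated negative control wells and 100% = positive control rescue; higher means more ATP so stronger rescue from cytokine killing; wells of about 40 µL received 100 nL stock; the first replicate is given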
# Ecoli rRNA inh – selective bacterial rRNA inhibition in E. coli. hit rate 1.6% among 350,000. E. coli WT GFP vs humanized-ribosome RFP mutants, fluorescence, 24 h; active compounds read low; DMSO median 0, no signal -100. GFP signal change (wild-type ribosome), % (concentration not given with the values);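 active = significant combined selectivity score with lowered wild-type GFP, culture density cut under 30%, mutant RFP and density less affected; inactive = any of these conditions unmet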; also: one replicate is shown; some compounds called inactive have numbers as strong as hits
# Bfl-1 A1 inh – inhibitors of the anti-apoptotic protein A1, read as caspase activation; MEF A1-2A-BIM cells, Caspase-Glo 3/7 luminescence, 3 h; percent of clofoctol response, vehicle zero; caspase activation, % (concentration not given with the values); hit rate 0.066% among 330,000;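 active = over half of replicate activation scores above 10%, or exactly half above 10 with the replicate mean above 10; inconclusive = replicate mean below 10 yet half the replicates above 10; inactive = over half of replicates below 10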;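 also: wells of about 30 µL received 50 nL stock; many hits fall short of the cut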
# Calb FLC – affects C. albicans growth with fluconazole. C. albicans CaCi-2 (fluconazole-resistant clinical isolate) + fluconazole, Alamar Blue growth, 48 h. growth inhibition, % (no concentration beside the values). hit rate 0.57% among 300,000;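 active = most replicates above 75%; inconclusive = exactly half above 75%; inactive = most below 75%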;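 also: all wells also contain fluconazole at 8 µg/ml as a sub-toxic cotreatment; 0% = median of DMSO wells and 100% = median of geldanamycin control wells; wells of about 8 µL received 7.5 nL stock; the first replicate is given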
# ALR inh – inhibitors of human sulfhydryl oxidase ALR. AID 485317. P55789. inhibition, % (no concentration beside the values). purified ALR, DTT oxidation, H2O2 HRP-luminol luminescence. hit rate 3.8% among 290,000;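 active = mean and each replicate at 75% or more; inconclusive = only one of the two met; inactive = neither met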;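 also: stock transfer was 7.5 nL into about 7.5 µL; 0% = neutral wells and 100% = wells with inactivated enzyme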
# Target sequence (P55789 whole entry, looked up): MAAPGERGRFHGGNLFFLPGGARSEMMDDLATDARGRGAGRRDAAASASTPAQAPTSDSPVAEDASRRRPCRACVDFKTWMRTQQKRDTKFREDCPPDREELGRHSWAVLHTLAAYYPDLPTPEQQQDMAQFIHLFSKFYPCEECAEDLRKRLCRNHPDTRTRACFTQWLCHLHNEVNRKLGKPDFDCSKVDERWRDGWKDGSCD
# Ecoli rRNA inh OD600 – also measured in Ecoli rRNA inh; calls as there; OD600 change, %; measured here: OD600 growth;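 optical density of the mix in the first replicate; 0 = DMSO median and -100 = no signal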
# Ecoli rRNA inh RFP – recorded beside Ecoli rRNA inh, whose call it bears; RFP signal change, %; measured here: RFP humanized mutant strains;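 first replicate; 0 = DMSO median and -100 = no signal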
# The depositor's hits bear a star; ? = inconclusive; . = not tested or not shown. Some of the compounds tested; the hit share may differ from the screen's.
SMILES,T cruzi inh,B2AR ag,LANA-H2B inh,Beta apoptosis,Ecoli rRNA inh,Ecoli rRNA inh OD600,Ecoli rRNA inh RFP,Bfl-1 A1 inh,Calb FLC,ALR inh
COC(=O)C1CCN(C(=O)NC2CC(=O)N(c3ccc4c(c3)OCCO4)C2)CC1 (centres undefined),-1,0,8.2,-3,6,8,-0.6,1.3,2,-2
C=CC[C@@H](CC(=O)N[C@H](CO)Cc1ccccc1)C(=O)N[C@H](C)COC(=O)[C@@H](CC=C)Cc1ccc(F)cc1,.,5,-0.2,-1,10,7,8.5,-0.4,.,2
Cc1ccc(Nc2c(-c3ccc(C)o3)nc3cnccn23)cc1,-6,1,0.3,-6,6,-19,-13,-1.2,3,.
CS(=O)(=O)c1ccc(Cl)c(NC(=O)c2cc(=O)[nH]c3ccc(S(=O)(=O)N4CCOCC4)cc23)c1,0,-10,0.0,-2,10,15,-0.1,1.0,-9,1
O=C1COc2ccc(C(=O)COC(=O)c3ccccc3F)cc2N1,.,3,-2.8,1,5,15,3.4,-6.4,.,-1
c1ccc(-c2nc(Sc3ncnc4c3cnn4-c3ccccc3)n[nH]2)cc1,0,.,2.5,-4,.,.,.,-1.5,15,64
CN(CC(=O)Nc1ccccc1Cl)C(=O)CSc1nc2ccccc2s1,8,0,-0.3,-2,-26*,-17*,2.5*,-0.2,6,85*
COCCn1c(SCC(=O)NCc2cccs2)nnc1-c1ccc(OC)cc1,-5,2,-7.5,2,0,-1,-2.7,0.2,-3,-1
COC(=O)C1=C(CN2CCN(C)CC2)NC(=O)NC1c1cc(C)ccc1C (centres undefined),-5,2,-2.2,0,.,.,.,-0.1,6,-1
CC(C)=CC(=O)OCc1cc([N+](=O)[O-])cc2c1OCOC2,6,-5,2.2,-5,-16*,3.3*,3.8*,-0.5,-7,.
N#Cc1nc(COc2ccccc2Cl)oc1N1CCCC1,8,-17,-3.1,0,.,.,.,-0.4,21,-113
O=C1COc2ccc(C(=O)CCl)cc2N1,-15,10,2.0,-12,7,9,-4.9,-0.3,-1,.
CC(C)(C(N)=O)N1CCN(c2ncc(C(F)(F)F)cc2Cl)CC1,4,-15,4.9,-1,.,.,.,0.2,9,4
CC(=O)N1CCN(C(=O)c2oc3ccccc3c2C)CC1,-12,-6,-11,-4,12,3,0.3,2.3,-14,-1
Cc1cc2c(cc1S(=O)(=O)Nc1cccc(F)c1C)NC(=O)CO2,8,3,-1.6,-5,-47,-60,4.0,1.7,20,2
CC1(C)CC(=O)c2sc(NS(=O)(=O)c3ccc(Br)cc3)nc2C1,5,-4,2.6,-7,-10,-8,-0.5,0.1,-17,-5
O=C(CN1C(=O)NC2(CCCC2)C1=O)Nc1cc(Cl)ccc1N1CCOCC1,-9,2,1.2,0,3,-2,-0.2,1.3,4,-1
CC(=O)c1ccc(OC(=O)c2cccs2)cc1,-22,10,0.7,-1,.,.,.,-0.7,-4,.
O=C(Nc1ccc(Cl)cc1Cl)NC1CCCC1,17,4,-5.5,3,10,7,0.2,0.3,-21,-25
CCOC(=O)CN1C(=O)CSc2ccc(S(=O)(=O)N3CCCC3)cc21,-7,9,0.4,-6,7,11,2.6,0.2,0,-2
Cc1cc(C)c2c(n1)nn1c(N3CCN(c4ccccc4)CC3)cc(C)nc21,39,4,0.2,23,.,.,.,-0.3,9,46
O=C(Nc1nc2ccc(F)cc2s1)c1cccc(S(=O)(=O)N2CCc3ccccc32)c1,15,-1,2.3,21,4,13,4.2,-1.6,-3,13
C[C@H](CO)N1C[C@H](C)[C@@H](CN(C)S(=O)(=O)c2cccs2)Oc2c(NC(=O)Cc3ccccc3)cccc2C1=O,.,-1,-0.8,-1,2,-9,4.9,-0.6,.,-1
N#Cc1cc(C#N)c(SCC(=O)N2CC(=O)Nc3ccccc32)nc1N,.,-5,3.5,-19,7,1,-3.6,-0.2,.,3
O=C(CCCn1c(=O)c2sccc2n(CC(=O)NCC2CCCO2)c1=O)NCc1ccco1 (centres undefined),-2,-8,0.2,-4,4,-1,-3.7,1.2,-2,-4

# At a glance, 10 of the compounds above.
SMILES,T cruzi inh,B2AR ag,LANA-H2B inh,Beta apoptosis,Ecoli rRNA inh,Ecoli rRNA inh OD600,Ecoli rRNA inh RFP,Bfl-1 A1 inh,Calb FLC,ALR inh
CC1(C)CC(=O)c2sc(NS(=O)(=O)c3ccc(Br)cc3)nc2C1,5,-4,2.6,-7,-10,-8,-0.5,0.1,-17,-5
O=C(CN1C(=O)NC2(CCCC2)C1=O)Nc1cc(Cl)ccc1N1CCOCC1,-9,2,1.2,0,3,-2,-0.2,1.3,4,-1
CC(=O)c1ccc(OC(=O)c2cccs2)cc1,-22,10,0.7,-1,.,.,.,-0.7,-4,.
O=C(Nc1ccc(Cl)cc1Cl)NC1CCCC1,17,4,-5.5,3,10,7,0.2,0.3,-21,-25
CCOC(=O)CN1C(=O)CSc2ccc(S(=O)(=O)N3CCCC3)cc21,-7,9,0.4,-6,7,11,2.6,0.2,0,-2
Cc1cc(C)c2c(n1)nn1c(N3CCN(c4ccccc4)CC3)cc(C)nc21,39,4,0.2,23,.,.,.,-0.3,9,46
O=C(Nc1nc2ccc(F)cc2s1)c1cccc(S(=O)(=O)N2CCc3ccccc32)c1,15,-1,2.3,21,4,13,4.2,-1.6,-3,13
C[C@H](CO)N1C[C@H](C)[C@@H](CN(C)S(=O)(=O)c2cccs2)Oc2c(NC(=O)Cc3ccccc3)cccc2C1=O,.,-1,-0.8,-1,2,-9,4.9,-0.6,.,-1
N#Cc1cc(C#N)c(SCC(=O)N2CC(=O)Nc3ccccc32)nc1N,.,-5,3.5,-19,7,1,-3.6,-0.2,.,3
O=C(CCCn1c(=O)c2sccc2n(CC(=O)NCC2CCCO2)c1=O)NCc1ccco1 (centres undefined),-2,-8,0.2,-4,4,-1,-3.7,1.2,-2,-4

# (more compounds)
SMILES,T cruzi inh,B2AR ag,LANA-H2B inh,Beta apoptosis,Ecoli rRNA inh,Ecoli rRNA inh OD600,Ecoli rRNA inh RFP,Bfl-1 A1 inh,Calb FLC,ALR inh
NC(=S)N=Nc1c(O)n(Cc2ccccc2)c2ccccc12,41,-7,-0.7,6,7,1,3.9,0.0,-10,2
CC(=O)Nc1ccc(SCC(=O)NC(=O)c2ccccc2Br)cc1,.,4,0.4,-2,8,8,-1.9,-0.2,.,98*
COc1ccc(C(C#N)CCC2OCCO2)cc1OC (centres undefined),.,6,-5.2,-9,3,-1,-3.4,0.9,.,-12
CCOc1ccc(OCC(=O)Nc2ccc(N3CCCCC3)cc2)cc1,18,-5,0.7,2,-2,11,0.9,1.0,-5,-3
COc1ccc(Cl)cc1NC(=S)N(CCCN1CCOCC1)Cc1cn(C)c2ccccc12,32,3,2.7,-1,.,.,.,0.5,7,-7
NNC(=O)c1cc2ccccc2cc1O,-24,8,-7.6,5,.,.,.,-5.8,-5,2
O=C(OCC(=O)N1CCN(C(=O)c2ccco2)CC1)c1ccccc1Cc1ccccc1,-1,-12,-1.7,-1,.,.,.,0.3,4,-4
O=C(OCCOc1ccc(Br)cc1)c1ccc(Cl)c(S(=O)(=O)N2CCOCC2)c1,17,-1,-3.3,1,-6,-5,1.8,-1.0,1,0
COc1ccc([N+](=O)[O-])cc1NC(=O)CCS(=O)(=O)c1ccc(Br)cc1,4,-7,1.8,-2,-5,-2,1.6,0.6,13,-1
Cc1ccc(-c2nnn(CC(=O)N(c3ccccc3F)C(C(=O)NC3CCCC3)c3ccncc3)n2)o1 (centres undefined),2,2,-1.1,-3,2,8,0.3,-0.2,19,-4
CCCCc1cc(=O)oc2cc(C)cc(OCC(=O)NCCN3CCOCC3)c12,10,1,-2.2,4,-6,-18,-2.8,-1.0,4,1
Cc1ccccc1NC(=O)Nc1ccccn1,-2,8,1.1,3,-1,6,-2.2,-2.2,-4,2
COc1ccc(N2CCN(C(=O)CSc3ncnc4c3cnn4-c3ccccc3C)CC2)cc1,7,-4,-2.0,3,.,.,.,-0.4,2,.
COc1cccc(NC(=O)c2cc(S(=O)(=O)N3CCc4ccccc43)cn2C)c1,0,5,-5.4,4,-2,0,-0.6,-0.3,2,-14
COc1ccc(C2C(C(=O)c3ccco3)=C(O)C(=O)N2CCN2CCOCC2)cc1 (centres undefined),-9,-7,0.8,-7,4,13,-0.7,-0.1,-2,0
CCOC(=O)CC(NC(=O)Cn1nnc(-c2ccccc2Cl)n1)c1ccc(OC)cc1 (centres undefined),12,-2,-2.4,4,.,.,.,-0.1,-2,-6
O=C1OC2(CCCC2)OC(=O)C1=Cc1c[nH]c2ccccc12,3,5,8.5,-2,22,19,29,0.2,27,3
COC(=O)[C@H](C)NC(=O)Nc1cc(OC)ccc1OC,-4,-5,5.4,-3,.,.,.,?,14,0
COCCn1c(Cc2ccccc2)nnc1SCC(=O)Nc1ccccc1,2,2,-1.6,-1,-1,-10,6.0,0.3,21,-13
Cc1ccc(-n2nnnc2Sc2nc([N+](=O)[O-])nn2C)cc1C,46,8,4.0,-36,.,.,.,0.9,1,-16
N=c1c2c(-c3ccccc3)c(-c3ccccc3)n(Cc3ccccc3)c2ncn1CCCn1ccnc1,60*,42,0.7,4,.,.,.,0.4,1,.
Cc1nc(NC(=O)/C=C/c2ccc(Cl)cc2Cl)sc1C(=O)N(C)C,-3,1,1.1,-2,.,.,.,-0.4,-5,-16
Cc1ccccc1SCC(=O)OCC(=O)Nc1ccc(N(C)C)cc1,-7,-3,0.3,1,2,-3,-8.6,0.1,-4,99*
NS(=O)(=O)c1ccc(NC(=O)CN2CCCCC2)cc1,-3,-1,-4.5,.,.,.,.,1.3,-2,5
COc1cc(C2C3=C(CC(C)(C)CC3=O)NC3=C2C(=O)c2ccccc23)ccc1O (centres undefined),-15,-10,.,-5,-31*,-23*,-4.2*,0.3,15,48
C[C@H]1COC(=O)[C@H](Cc2ccc(F)cc2)C/C=C\C[C@H](CC(=O)N(CCO)Cc2ccccc2)C(=O)N1,.,2,1.5,4,-2,-14,12,-0.4,.,-4
CC1CCC2(CC1)NC(=O)N(CC(=O)c1ccc(CNC(=O)C(C)(C)C)s1)C2=O (centres undefined),.,-4,-3.7,-4,6,17,-0.9,-0.3,.,.
CCOc1ccc(NC(=O)CCC(=O)c2ccc(F)cc2)cc1,1,-3,1.7,.,3,7,1.7,-0.6,-7,0
CC(Sc1nnc(NCc2ccccc2)s1)C(=O)Nc1ccc2c(c1)C(=O)c1ccccc1C2=O (centres undefined),-12,12,-1.2,8,.,.,.,-0.2,22,.
